Screens from PubChem.
HCMV NEC inh = inhibitors of HCMV UL50-UL53 nuclear egress complex interaction; 190,000 compounds, 0.15% hits; inhibition, % (no concentration beside the values); AID 1918969; HTRF UL50-UL53 interaction, normalized percent inhibition;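 active = both replicates at 50% or more, plus weaker picks with an unusually low signal ratio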;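 also: stock transfer was 100 nL into about 20 µL; 0% = negative control wells and 100% = wells with untagged competitor protein; inactives centre near -12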
Sa growth 42C = blocks Staphylococcus aureus growth | S. aureus RN4220 growth, OD600, 20 h, 42 °C; stronger effect = lower value | AID 720641 | 170,000 compounds, 0.53% hits | relative growth, % (test concentration not listed);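 active = growth at 42 °C up to 50% and 20 or more points under that at 30 °C, or under 10% at both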;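 also: 300 nL library stock went into each well; scaled to the means of positive and negative controls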
GIV Gai3 FP = GIV-Galpha-i interaction inhibition; 210,000 compounds, 0.42% hits; Galpha-i3/FITC-GIV peptide fluorescence polarization, 90 min; stronger effect = lower value; scaled: aluminum fluoride 0%, vehicle 100%; percent of control (FP), % (no concentration beside the values);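 active = replicate mean at 85% of control or lower, very high polarization wells dropped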;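 also: wells of about 15 µL received 100 nL stock; the first replicate is given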
Target sequence (P08753 whole entry, looked up): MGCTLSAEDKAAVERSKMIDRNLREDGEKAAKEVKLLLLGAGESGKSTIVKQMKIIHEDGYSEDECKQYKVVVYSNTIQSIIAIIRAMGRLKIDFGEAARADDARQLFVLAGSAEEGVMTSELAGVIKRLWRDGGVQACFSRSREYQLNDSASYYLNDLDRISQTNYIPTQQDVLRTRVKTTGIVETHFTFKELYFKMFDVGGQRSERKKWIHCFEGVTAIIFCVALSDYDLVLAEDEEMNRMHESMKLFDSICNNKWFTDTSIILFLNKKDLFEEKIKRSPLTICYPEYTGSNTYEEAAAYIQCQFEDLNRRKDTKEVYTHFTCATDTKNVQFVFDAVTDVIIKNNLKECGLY
Sa growth 42C second temp = second read-out of Sa growth 42C, no call of its own (marks repeat the call); relative growth, %; measured here: growth at 30 °C;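 optical density after 20 h as mean of two plates; 100% = untreated growth and lower means inhibition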
Starred values were filed as active, the others as inactive; nt = not tested or not shown.

1	CC(NC(=O)CSc1n[nH]c(=O)n1C1CC1)C12CC3CC(CC(C3)C1)C2 (stereo unspecified)
2	CC1CCCCN1C(=O)Cc1coc2ccc3ccccc3c12 (stereo unspecified)
3	Cn1c(=S)sc2ccccc21
4	CC(C)(C)c1ccc(CCCNCCN2CCNCC2)cc1
5	O=S(=O)(NC1CC1)c1ccc(S(=O)(=O)N(Cc2ccccn2)C2CC2)cc1
6	COc1ccc(Cc2nnc(Nc3c(C)cccc3C)o2)cc1OC
7	COc1cc(OC)c(NC(=O)c2oc3ccc4c(c3c2C)C(=O)CC(C)(C)O4)cc1Cl
8	COc1ccc(COCC(O)CNC2Cc3ccccc3C2)cc1 (stereo unspecified)
9	CCOC(=O)C1CCN(S(=O)(=O)c2nc3nc(C)cc(C)n3n2)CC1
10	O=C(CSc1nnc(NC(=O)C23CC4CC(CC(C4)C2)C3)s1)Nc1nccs1

compound no.	1	2	3	4	5	6	7	8	9	10
HCMV NEC inh	-37	-23	-26	6	-12	-26	nt	5	-2	-7
Sa growth 42C	108	110	100	128	120	91	89	102	85	100
Sa growth 42C second temp	97	87	79	98	96	89	101	94	99	106
GIV Gai3 FP	nt	nt	109	nt	105	99	111	102	nt	103

11	CC(C)n1c(SCC(=O)c2ccc(F)cc2)nc2c(sc3ccccc32)c1=O
12	CCOc1ccccc1NC(=O)Cn1c(=O)n(-c2ccc(C)c(C)c2)c(=O)c2c(C)c(C(=O)N(C)C)sc21
13	Cc1ccc2oc(=O)n(CCc3noc(-c4cccs4)n3)c2c1
14	O=C1OC(c2ccccc2Cl)Sc2ccccc21 (stereo unspecified)
15	O=C(NCc1ccccc1)c1ccccc1NS(=O)(=O)c1ccc(F)cc1
16	S=c1nn[nH]n1C1CCCCCCC1
17	COc1ccc(C2=NC(CO)(CO)CO2)cc1
18	O=C(Cc1ccc([N+](=O)[O-])cc1)N1N=C(c2ccc(Br)cc2)CC1(O)C(F)(F)F (stereo unspecified)
19	Cc1ccc(CNC(=O)c2cc3c(s2)-c2ccccc2SC3)cc1
20	CC(C)Cn1cnc2c1c(=O)n(CC(=O)NCc1ccc(F)cc1)c(=O)n2CC(C)C

compound no.	11	12	13	14	15	16	17	18	19	20
HCMV NEC inh	nt	nt	-2	2	-18	12	-9	-23	-3	18
Sa growth 42C	101	126	103	102	132	93	94	nt	90	100
Sa growth 42C second temp	87	96	97	84	62	92	92	nt	90	105
GIV Gai3 FP	98	105	98	110	nt	nt	100	103	105	nt

21	CC1CC(=O)c2cnc(N3CCN(C)CC3)nc2C1 (stereo unspecified)
22	O=C(c1ccc2c(c1)N(Cc1cccc(Cl)c1)C(=O)c1ccccc1S2(=O)=O)N1CCN(Cc2ccccc2)CC1
23	COc1ccc2c(c1)c(CC(=O)OCC(=O)N1CCOCC1)c(C)n2C(=O)c1ccc(Cl)cc1
24	CCOC(=O)C1CCCn2c1nc1sc3c(c1c2=O)CCCC3 (stereo unspecified)
25	O=c1[nH]ncc(N/N=C\C2CC=CCC2)c1Cl (stereo unspecified)
26	Oc1cccc(Nc2nc3ccc(Cl)cc3n3cnnc23)c1
27	Cn1c(=O)[nH]c(=O)c2c1nc(NCCN1CCOCC1)n2CC(O)c1ccccc1 (stereo unspecified)
28	CCC1Sc2ccccc2N(CC(=O)NC2CC2)C1=O (stereo unspecified)
29	O=C(NCc1ccccc1)N1CCn2cccc2C1c1ccccc1 (stereo unspecified)
30	CCCCN1C(=O)C(O)(CC(=O)c2ccco2)c2cc(Br)ccc21 (stereo unspecified)

compound no.	21	22	23	24	25	26	27	28	29	30
HCMV NEC inh	-21	nt	-12	5	-34	7	nt	nt	-35	0
Sa growth 42C	nt	144	102	103	82	100	84	144	95	90
Sa growth 42C second temp	nt	107	90	131	79	98	77	85	89	57
GIV Gai3 FP	98	105	98	nt	102	106	99	99	109	101

31	CC(C)(O/N=C(\C(=O)N[C@@H]1C(=O)N2C(C(=O)[O-])=C(C[n+]3ccccc3)CSC12)c1csc(N)n1)C(=O)O (stereo partly specified)
32	CCc1nnc(NC(=O)CSc2nc3c([nH]c4ccccc43)c(=O)n2-c2cc(C)cc(C)c2)s1
33	CC(C)c1cc(=O)n2[nH]c(N)nc2n1
34	COc1cccc(Nc2cc(C)c3ccccc3n2)c1
35	CC(=O)Nc1ccc2c(COC(=O)c3ccc(-n4cnnn4)cc3)cc(=O)oc2c1
36	Cc1nc(N2CCOCC2)c2c(C(=O)N3CCN(c4ccccc4)CC3)c(C)oc2n1
37	CCOc1cc(C(=O)N(Cc2nc(-c3ccc(C)cc3)no2)C(C)C)cc(OCC)c1OCC
38	NC(=O)c1cc(-c2ccccc2)sc1NC(=O)c1ccco1
39	Cc1ccc(CNC(=O)C2c3c(C)nn(-c4ccccc4)c3SCC(=O)N2c2ccc3c(c2)OCCO3)cc1 (stereo unspecified)
40	CCN1CC(=O)N(c2ccc(C)cc2)[C@@H]2CS(=O)(=O)C[C@@H]21

compound no.	31	32	33	34	35	36	37	38	39	40
HCMV NEC inh	-44	nt	7	nt	-20	nt	-27	-15	-25	12
Sa growth 42C	69	87	80	72	72	86	92	102	nt	nt
Sa growth 42C second temp	74	85	96	73	95	85	90	83	nt	nt
GIV Gai3 FP	nt	101	nt	105	nt	97	96	nt	101	104

41	COc1ccc(NS(=O)(=O)c2ccc(OCC(F)(F)F)c(C#N)c2OCC(F)(F)F)cc1
42	N#Cc1c(-n2cccc2/C=N/NC(N)=S)sc2c1CCCC2
43	COC(=O)c1cc(NC(=O)c2ccc(-c3ccc(Cl)cc3Cl)o2)cc(C(=O)OC)c1
44	O=C1OC2(C(=O)c3ccccc3C2=O)/C(=C(\O)c2ccc(Br)cc2)C1=O
45	CCn1c(N2CCN(S(C)(=O)=O)CC2)nc2ccccc21
46	N#Cc1cccnc1NNC(=O)Nc1ccc(OCc2ccccc2)cc1
47	O=C(CCn1c(=O)c2cccn2c2cccnc21)N1CCCC1
48	CCc1ccc(S(=O)(=O)NCc2ccc3c(c2)CCN3C(=O)c2ccc(C)cc2)cc1
49	Cc1ccc(-n2c(O)c(/C=N/c3ccccn3)c3ccccc3c2=O)cc1C
50	C=CCn1c(CC(C)C)nnc1SCC(=O)Nc1ccc(OC)cc1

compound no.	41	42	43	44	45	46	47	48	49	50
HCMV NEC inh	-41	-30	-34	-18	-10	-13	nt	nt	-8	24
Sa growth 42C	104	85	107	88	108	91	92	84	107	98
Sa growth 42C second temp	90	61	87	78	95	87	94	86	99	104
GIV Gai3 FP	101	112	107	98	99	98	106	102	nt	111

51	CN1CCN(S(=O)(=O)c2c[nH]c(=O)[nH]c2=O)CC1
52	CN(C)S(=O)(=O)n1cc(/C=C(\NC(=O)c2ccccc2F)C(=O)NCc2ccco2)c2ccccc21
53	CC(C)c1ccc(NC(=O)c2cc3n(n2)C(C(F)(F)F)CC(c2ccco2)N3)cc1 (stereo unspecified)
54	CCOC(=O)c1cc(Cn2cnc3oc(C)c(C)c3c2=O)on1
55	Cc1nc2c(-c3ccc(Cl)cc3)c(C(F)(F)F)[nH]n2c(=O)c1Cc1ccccc1
56	CC1(C)CC(=O)c2sc(N)nc2C1
57	CCN(CC(=O)NCc1ccc(Cl)cc1)Cc1nnc(-c2ccc(F)cc2)o1
58	CCC(=O)N1N=C(c2c(-c3ccccc3)c3cc(Cl)ccc3[nH]c2=O)CC1c1ccccc1OC (stereo unspecified)
59	COc1ccc2c(C)c(CCC(=O)NCc3ccccc3OC)c(=O)oc2c1
60	COc1ccc(N2CC(NC(=O)c3c(F)cccc3Cl)CC2=O)cc1OC (stereo unspecified)

compound no.	51	52	53	54	55	56	57	58	59	60
HCMV NEC inh	4	-8	8	-6	nt	-11	-5	14	-22	nt
Sa growth 42C	nt	104	84	nt	68	94	100	nt	106	101
Sa growth 42C second temp	nt	85	96	nt	48	95	91	nt	91	93
GIV Gai3 FP	109	105	nt	108	106	99	nt	105	97	99

61	Cc1onc(-c2ccccc2)c1C(=O)c1ccccc1
62	c1ccc(NC2CCCCC2)nc1
63	CCc1c(CN2CCN(c3cccc(C)c3C)CC2)csc1C
64	COc1cc(Cl)cc2c1OC=CC(C(=O)N1CCOCC1)=C2
65	Cc1ccc(Nc2cc(C(=O)NCC3CCCO3)c3ccccc3n2)cc1C (stereo unspecified)
66	CC(=O)N1CCCSc2ccc(S(=O)(=O)NCCN3CCC(C)CC3)cc21
67	Cc1ccc(CSc2ncc(Cl)c(C(=O)Oc3ccc(F)cc3)n2)cc1
68	Cc1ccc(Cl)cc1NC(=O)C1CC2CSCN2C12C(=O)Nc1ccccc12 (stereo unspecified)
69	CC1CCCC/C1=N\NC(=S)Nc1ccccc1 (stereo unspecified)
70	Cc1ccc(Nc2nc3nonc3nc2Nc2ccccc2F)cc1Cl

compound no.	61	62	63	64	65	66	67	68	69	70
HCMV NEC inh	-3	-11	nt	-53	nt	6	-24	-6	-23	-5
Sa growth 42C	111	117	79	nt	117	nt	90	nt	92	nt
Sa growth 42C second temp	98	91	87	nt	92	nt	93	nt	73	nt
GIV Gai3 FP	100	107	109	116	96	104	103	111	nt	104

71	CN1C(=O)C2C(c3cccc(Br)c3)C(C#N)=C(N)OC2N(C)C1=O (stereo unspecified)
72	O=C(c1ccccc1Nc1ccc(SC(F)F)cc1)N(CCO)CCO
73	CC(=O)NS(=O)(=O)c1ccc(NC(=O)c2ccc(C)c(C)c2)cc1
74	CN(C)c1cccc(C(=O)NN)c1
75	c1cncc(Oc2nc(CN3CCOCC3)nc3sc4c(c23)CCC4)c1
76	O=C(C1CCN(c2nccn3nc(-c4ccccc4)cc23)CC1)N1CCN(c2ccccn2)CC1
77	C=CCNc1sc(C)nc1C(N)=O
78	Cc1cccc(N2CCN(CN3C(=O)C4(OCCCO4)c4ccccc43)CC2C)c1 (stereo unspecified)
79	COc1ccc(-c2cc3n(n2)CCC(=O)N3Cc2ccc(C(=O)NC3CCS(=O)(=O)C3)cc2)cc1 (stereo unspecified)
80	CC(SC1=N/C(=C\c2ccco2)C(=O)N1c1ccc(OC(F)F)cc1)C(=O)NCc1ccc2c(c1)OCO2 (stereo unspecified)

compound no.	71	72	73	74	75	76	77	78	79	80
HCMV NEC inh	-3	-17	-5	-4	14	-30	-13	-8	-11	4
Sa growth 42C	99	114	90	80	104	nt	113	97	nt	89
Sa growth 42C second temp	90	92	99	85	106	nt	106	90	nt	91
GIV Gai3 FP	nt	nt	95	nt	nt	107	nt	99	108	nt

Three records picked at random from the list so far, as already listed:
76	O=C(C1CCN(c2nccn3nc(-c4ccccc4)cc23)CC1)N1CCN(c2ccccn2)CC1
72	O=C(c1ccccc1Nc1ccc(SC(F)F)cc1)N(CCO)CCO
71	CN1C(=O)C2C(c3cccc(Br)c3)C(C#N)=C(N)OC2N(C)C1=O (stereo unspecified)

compound no.	76	72	71
HCMV NEC inh	-30	-17	-3
Sa growth 42C	nt	114	99
Sa growth 42C second temp	nt	92	90
GIV Gai3 FP	107	nt	nt

The list goes on:
81	CN(C)CCNC(=O)CN1C(=O)COc2ccc(C(=O)N(C)C)cc21
82	O=C(CSc1nc(=O)[nH]c2c1CCC2)Nc1cc(C(F)(F)F)ccc1Cl
83	CCCCOC(=O)c1ccc(Nc2nnc(-n3nc(C)cc3C)c3ccccc23)cc1
84	CCOC(=O)c1cnn(-c2ccc(NC(=O)C(F)(F)F)cc2)c1C(F)(F)F
85	CN1CCc2c(OCc3ccc(Cl)cc3)cccc2C1=O
86	CCCCOc1ccc(C(C)(C#N)CC#N)cc1 (stereo unspecified)
87	CCCCn1c(SCC(=O)N(CC)C2CCS(=O)(=O)C2)nnc1C(CC)N(C)C (stereo unspecified)
88	COc1c(Cl)cc(CO)cc1Cl
89	O=C1CC(c2ccccc2)Cc2[nH]c(=O)c(C(=O)NCc3ccc(Cl)cc3)cc21 (stereo unspecified)
90	CC(=O)N1c2ccccc2N(Cc2ccc(C)cc2C)C(=O)C1(C)C
91	O=C(CCn1cnc2onc(-c3cccc(F)c3)c2c1=O)NCc1ccc(Cl)cc1
92	CN1C(=O)c2ccccc2Sc2ccc(NC(=O)NCc3ccc(Cl)cc3)cc21

compound no.	81	82	83	84	85	86	87	88	89	90	91	92
HCMV NEC inh	-8	nt	nt	-9	-9	0	-14	-7	-24	-17	-2	14
Sa growth 42C	nt	94	105	99	6.4*	110	74	110	nt	103	nt	104
Sa growth 42C second temp	nt	87	94	88	9.4*	95	94	103	nt	90	nt	95
GIV Gai3 FP	100	98	110	99	103	102	nt	103	105	103	107	101

Limited to GIV Gai3 FP, Sa growth 42C and Sa growth 42C second temp, for some of the entries so far:
# | Compound | GIV Gai3 FP | Sa growth 42C | Sa growth 42C second temp
86 | CCCCOc1ccc(C(C)(C#N)CC#N)cc1 (stereo unspecified) | 102 | 110 | 95
90 | CC(=O)N1c2ccccc2N(Cc2ccc(C)cc2C)C(=O)C1(C)C | 103 | 103 | 90
91 | O=C(CCn1cnc2onc(-c3cccc(F)c3)c2c1=O)NCc1ccc(Cl)cc1 | 107 | nt | nt
85 | CN1CCc2c(OCc3ccc(Cl)cc3)cccc2C1=O | 103 | 6.4* | 9.4*
